HPGD block: HPGD (human) dehydrogenase inhibition; P15428; Potency, µM, without a hit: top-dose activity change, negative = inhibition, usual class: inhibitors; purified HPGD, NADH fluorescence kinetic, PGE2 substrate; 150,000 tested, 4.3% active; active = well fitted inhibition curve with a large enough effect (not every such curve was filed as active); inconclusive = small, poorly fitted or top-dose-only effect, or another doubt; inactive = no such curve, though single readings can be large or run the other way;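 further: top concentration of the series not given in the record; plate controls included wells without enzyme; inactives centre near -10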
Target sequence (P15428 whole entry, looked up): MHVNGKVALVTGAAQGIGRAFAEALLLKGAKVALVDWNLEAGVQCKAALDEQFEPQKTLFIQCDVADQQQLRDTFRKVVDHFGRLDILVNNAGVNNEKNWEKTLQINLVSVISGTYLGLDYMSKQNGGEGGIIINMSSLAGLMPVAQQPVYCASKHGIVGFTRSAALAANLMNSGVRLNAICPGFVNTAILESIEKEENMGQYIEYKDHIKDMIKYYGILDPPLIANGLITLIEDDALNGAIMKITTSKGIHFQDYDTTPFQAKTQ
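20 nM HPGD preincubated 15 min at room temperature with compound in 50 mM Tris-HCl pH 8, 0.01% Tween 20. Started with 1 mM NAD+ and 30 uM prostaglandin E2; NADH fluorescence (360/450 nm) read 5 times over 30-s intervals, last minus first.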
* = called active by the depositor; ? = inconclusive. On the % scale 0 is the no-effect control and ±100 the full control effect; potency means the concentration at half of the fitted maximal effect. The list is partial (hit frequency here may not be typical).

no. | mol | HPGD block
1 | COc1ccc(-c2nnc3ccc(SCC(=O)NCc4ccco4)nn23)cc1 | -18%
2 | O=C(c1c(F)cccc1F)N1CCN(c2cccc(C(F)(F)F)c2)CC1 | -24%
3 | Nc1nc(-c2ccccc2)c(N=Nc2cccc3ccccc23)s1 | -9%
4 | COCC(C)OC(=O)C(C#N)c1nc2ccccc2nc1N1CCN(Cc2ccccc2)CC1 (stereo not given) | -23%
5 | Cn1c(CS(=O)Cc2c(Cl)cccc2Cl)nnc1SCc1ccc(Cl)cc1 (stereo not given) | -7%
6 | COc1cccc(NC(=S)NCCN2CCOCC2)c1 | -3%
7 | O=C1NCC2=C1C(c1ccc(Br)cc1)Nc1ccccc1N2 (stereo not given) | 0%
8 | COc1ccc(NC(=O)COC(=O)CCCOc2ccc(Cl)cc2Cl)cc1Cl | 28µM*
9 | CCCN(CCC)S(=O)(=O)c1ccc(C(=O)Nc2cc3oc4ccccc4c3cc2OC)cc1 | -23%
10 | Cc1c(NC(=O)CSc2nnc(-c3cccc(Cl)c3)o2)c(=O)n(-c2ccccc2)n1C | -12%
11 | CCOC(=O)Nc1nc2ccccc2s1 | 0%
12 | O=C1CC(c2ccccc2)c2c(O)cc(O)cc2O1 (stereo not given) | -3%
13 | Cc1ccccc1NC(=O)/C(=C\c1cccs1)NC(=O)c1ccccc1 | -11%
14 | COC(=O)/C(=C/c1cn(C)c2ccccc12)[N+](=O)[O-] | 3.5µM*
15 | Cc1cc(C2(c3ccc(O)c(C)c3)C(=O)Nc3ccccc32)ccc1O | -10%
16 | COC(=O)[C@@]1(Cc2ccc(OC)cc2)[C@H]2c3cc(C(=O)N4CCCC4)n(Cc4cc(F)c(F)c(F)c4)c3C[C@H]2CN1C(=O)c1ccccc1 | -13%
17 | CC(=O)C1=C(N2CCCCC2)CCC1=O | -10%
18 | CC1=C(C)CC(C(=O)NCc2ccc3c(c2)OCO3)C(C(=O)O)C1 (stereo not given) | -9%
19 | OCCN(CCO)c1ccc(C(c2ccc(Cl)cc2)c2ccc(N(CCO)CCO)cc2Cl)c(Cl)c1 | -15%
20 | CC(C)(C)c1onc(OCP(=O)(O)O)c1CC(N)C(=O)O (stereo not given) | -14%
21 | Cc1ccc(CN2CCN(C(=O)C3CCCO3)CC2)cc1 (stereo not given) | -7%
22 | O=C(CCNS(=O)(=O)c1ccc(Br)s1)NC1CCCC1 | -9%
23 | COc1ccc(C)cc1NC(=O)CN(c1ccccc1)S(C)(=O)=O | -7%
24 | COc1ccc(-c2nc(CS(=O)CC(=O)N3CCc4ccccc4C3)c(C)o2)cc1 (stereo not given) | -23%
25 | CCC(CO)Nc1ncc([N+](=O)[O-])cc1C#N (stereo not given) | -20%

More compounds follow:
no. | mol | HPGD block
26 | CCOC(=O)C(Sc1nnc(-c2ccncc2)o1)C(C)=O (stereo not given) | -3%
27 | Cc1cccc(CNc2ncnc3ccc(-c4ccoc4)cc23)c1 | ?
28 | COc1cccc(-n2nnc3c(=O)n(CC(=O)NCC4CCCO4)cnc32)c1 (stereo not given) | 16µM*
29 | CC(/C=N/Nc1nncc(=O)[nH]1)=C\c1ccccc1 | -5%
30 | COC(=O)C1CCCN1C(=O)c1cccs1 (stereo not given) | -3%
31 | O=c1oc2ccccc2c(Nc2cccc(O)c2)c1[N+](=O)[O-] | -20%
32 | Nc1nc(N)c2nc(-c3ccccc3)c(N)nc2n1 | ?
33 | O=C(CCCc1ccccc1)Nc1nncs1 | 2%
34 | O=C(Nc1ccc(F)cc1)c1nc[nH]c1C(=O)Nc1ccc([N+](=O)[O-])cc1 | -12%
35 | NCCC[C@@H](CC(=O)N[C@@H]1CCCC[C@H]1C(=O)N[C@H](CC(=O)N[C@@H](CCC(=O)O)CC(=O)O)Cc1c[nH]c2ccccc12)NC(=O)C[C@H](Cc1c[nH]c2ccccc12)NC(=O)[C@@H]1CNCC[C@H]1N | -5%
36 | Cn1c(C(=O)NCc2cccs2)cc2oc3ccccc3c21 | ?
37 | O=c1cc(-c2ccccc2)oc2cc(O)c(O)c(O)c12 | 28µM*
38 | NS(=O)(=O)c1ccc(NCc2cnc3ccccc3n2)cc1 | -2%
39 | O=C(Nc1cccnc1)c1cc2nc(C3CC3)cc(C(F)(F)F)n2n1 | 1%
40 | CC1(C)CC(=O)C(N=Nc2ccc(S(=O)(=O)N3CCCCCC3)cc2)=C(O)C1 | 25µM*
41 | O=C(CN1CCOCC1)N1CCN(c2nnc(-c3ccccc3)c3ccccc23)CC1 | 2%
42 | O=C(NC1CCN(Cc2ccccc2)C1)c1ccc(Cc2nc3ccccc3[nH]2)cc1 (stereo not given) | -5%
43 | CC1CC(C)CN(S(=O)(=O)c2ccc(C(=O)Nc3sccc3C(N)=O)cc2)C1 (stereo not given) | ?
44 | COc1ccc(CN(C2CCCC2)S(=O)(=O)c2ccc(-n3cnnn3)cc2)cc1 | -14%
45 | COc1ccc(OC)c(S(=O)(=O)NCc2cn3ccsc3n2)c1 | -1%
46 | O=C(Nc1nccs1)C1CCN(S(=O)(=O)c2c(Cl)cccc2Cl)CC1 | -1%
47 | Cc1cc(C)cc(NC(=O)CSc2nnc(CNC(=O)c3cccs3)o2)c1 | -9%
48 | C=CCn1c(SCC(=O)N(CC)CC)nc(O)cc1=O | -16%
49 | CC1=C2[C@@H](O)[C@H]([C@@H](C)C(=O)NCCC(C)C)CC[C@@]2(C)C=CC1=O | -8%
50 | CCN(CC)CCn1c(NCc2nc3ccccc3n2Cc2ccccc2)nc2ccccc21 | 0%

(more compounds)
no. | mol | HPGD block
51 | O=C1NC(=S)N/C1=C\c1cccc([N+](=O)[O-])c1 | -15%
52 | CSc1nnc2c3ccccc3n(CCc3ccccc3)c2n1 | -28%
53 | CCOC(=O)O[C@@H](C)OC(=O)[C@@H]1N2C(=O)[C@@H](NC(=O)[C@@H](N)c3ccccc3)[C@H]2SC1(C)C | -9%
54 | CCN(CCNC(=O)C1CCN(S(=O)(=O)c2cccc3nsnc23)CC1)c1ccccc1 | -8%
55 | CCC(=S)/C=C1\Sc2ccccc2N1CCCS(=O)(=O)O | ?
56 | C[C@H]1C[C@H]2[C@@H]3CCC4=CC(=O)C=C[C@]4(C)[C@@]3(Cl)[C@@H](O)C[C@]2(C)[C@@]1(O)C(=O)CO | -1%
57 | CCCSc1nnc(Sc2nnnn2-c2ccccc2)s1 | -28%
58 | COC(=O)N1CC(C)N(C(=O)OC)CC1C (stereo not given) | -5%
59 | CCOC(=O)/C(=N\Nc1ccc(C(C)=O)cc1)c1csc(Nc2ccccc2)n1 | -10%
60 | CN1CCN(S(=O)(=O)c2ccc(-c3ccccc3)cc2)CC1 | -2%
61 | COc1ccccc1N/C(=N/c1nc(C)cc(C)n1)NC(C)=O | -14%
62 | NC(=S)Nc1ccc(Oc2ccc(NC(N)=S)cc2)cc1 | 22µM*
63 | N=C1C(=O)OCC1c1ccccc1NC(=O)c1ccccc1 (stereo not given) | -4%
64 | COc1cc(NC(=O)Nc2ccc(C)cc2)cc([N+](=O)[O-])c1 | -10%
65 | O=C(NCCC1=CCCCC1)C1CCN(S(=O)(=O)c2cccs2)CC1 | -2%
66 | O=C(COc1ccccc1[N+](=O)[O-])N/N=C/C=C/c1ccco1 | -6%
67 | O=C(Nn1cnnc1)c1cc2cc(Br)ccc2oc1=O | -22%
68 | Cc1nc(SCC(=O)NCC2CCCO2)c2oc3ccccc3c2n1 (stereo not given) | ?
69 | CCOC(=O)Nc1nc(-c2ccc(Cl)cc2Cl)cs1 | -14%
70 | CCC(=O)n1nc(-c2ccc(Cl)cc2)nc1NCc1ccccc1 | 0%
71 | COc1ccc2c(c1)CCc1c(C(=O)NCCCn3ccnc3)noc1-2 | -10%
72 | O=C(Nc1ncccn1)c1cc(-c2cccc(Br)c2)nc2ccccc12 | -11%
73 | COc1cc(CN2CCN(S(=O)(=O)c3ccc(F)cc3)CC2)cc(OC)c1OC | -15%
74 | Nc1c2c(nc3ccn(Cc4ccccc4)c(=O)c13)CCC2 | ?
75 | CCOC(=O)c1cnn(CCOC(=O)c2cccc(F)c2)c1NC(=O)c1cccc(F)c1 | -15%

Reformatted with values ahead of the structure: part of the list above.
cpd | HPGD block | canonical_smiles
63 | -4% | N=C1C(=O)OCC1c1ccccc1NC(=O)c1ccccc1 (stereo not given)
4 | -23% | COCC(C)OC(=O)C(C#N)c1nc2ccccc2nc1N1CCN(Cc2ccccc2)CC1 (stereo not given)
64 | -10% | COc1cc(NC(=O)Nc2ccc(C)cc2)cc([N+](=O)[O-])c1
17 | -10% | CC(=O)C1=C(N2CCCCC2)CCC1=O
40 | 25µM* | CC1(C)CC(=O)C(N=Nc2ccc(S(=O)(=O)N3CCCCCC3)cc2)=C(O)C1

Following part
no. | mol | HPGD block
76 | CC1(C)CC(=O)C2=C(C1)N(c1ccc(F)cc1)C(=O)C2(O)C(F)(F)F (stereo not given) | -13%
77 | CCOc1cc(NC(=O)c2ccco2)c(OCC)cc1NC(=O)Cc1cccc(OC)c1 | ?
78 | O=C(COC(=O)CCCc1c[nH]c2ccccc12)Nc1ccc2c(c1)OCO2 | -12%
79 | COc1ccc(-c2nnn(CC(=O)N3CCOCC3)n2)cc1 | -3%
80 | Cc1cccc(C=Nc2ccccc2C(N)=O)c1 | ?
81 | Nc1nc2nccc(-c3ccc(Cl)cc3)n2n1 | ?
82 | C=C(C)CSc1nnc2n(C)c(=O)c3c4c(sc3n12)CCC4 | -1%
83 | CC(C)C1CCC(C(=O)NC(Cc2ccccc2)C(=O)O)CC1 (stereo not given) | -3%
84 | CCOc1ccc(-c2csc(NC(=O)CSC3=NC(=O)CN3C(C)=O)n2)c2ccccc12 | -18%
85 | CCOc1cc(/C=N/NC(=O)CSc2nncn2C)ccc1OCc1cccc(C)c1 | ?
86 | COC(=O)C/C=C/[C@@H](C)[C@@H](/C=N/OC[C@@H](C)[C@H](OCc1ccccc1)C(C)C)NS(=O)(=O)c1ccc(C)cc1 | -14%
87 | CCN1CCCC1Cn1c(-c2ccccc2)nc2c(NC3CCCCC3)nc(C)nc21 (stereo not given) | -24%
88 | O=C(NNC(=O)c1cc(OCC(F)(F)F)ccc1OCC(F)(F)F)c1cccc(C(F)(F)F)c1 | -11%
89 | CC(=O)OCCOc1nc(NC(C)C)nc(NC(C)C)n1 | -4%
90 | O=C(O)c1ccc2c(c1)C(=O)N(Cc1ccc3c(c1)OCO3)C2=O | 4.5µM*
91 | C/C(CC1(O)C(=O)N(C)c2ccccc21)=N\O (stereo not given) | -13%
92 | O=C(NNC(=O)c1ccccc1-n1cccc1)c1ccc(Cl)cc1 | -11%
93 | CCOC(=O)c1ccc(-c2ccc(C3Nc4ccccc4C(=O)N3O)o2)cc1 (stereo not given) | ?
94 | CCCCNC(=O)OCCNC(=O)NC | 4%
95 | CCCc1sc(N)nc1-c1ccc(C)cc1 | -24%
96 | O=C(Nc1ccc(Br)cc1F)C1CCN(c2nnc(-n3cccc3)s2)CC1 | -8%
97 | N#CC1=C(SCC(=O)NC2CC2)NC(=O)C(C#N)C12CCCCC2 (stereo not given) | -4%
98 | Nc1ccc(C(=O)N/N=C/c2sc(N3CCOCC3)nc2-c2ccccc2)cc1 | ?
99 | CC1CN(C(=O)/C(C#N)=C2\N=C(NC(=O)c3ccccc3Cl)c3ccccc32)CC(C)O1 (stereo not given) | -13%
100 | Cc1[nH]c(=S)[nH]c(=O)c1CCOc1ccccc1 | -15%

(cont.)
no. | mol | HPGD block
101 | Cc1ccc(NC(=O)c2cc(-c3ccccc3)nn2-c2ccccc2)c(Br)c1 | ?
102 | CCOC(=O)c1ccc(N=C2S/C(=C\c3cc(C)n(-c4cccnc4)c3C)C(=O)N2C)cc1 | -5%
103 | CCOC(=O)c1c(N)sc2c1CCC(CC)C2 (stereo not given) | ?
104 | COc1ccccc1CN(Cc1nc2ccccc2c(=O)[nH]1)S(=O)(=O)c1ccc(C)cc1 | -8%
105 | CCC(NS(=O)(=O)c1ccc(C)cc1)C(=O)Nc1ccc(NC(C)=O)cc1 (stereo not given) | -8%
106 | COc1cc2nc(N3CCN(C(=O)[C@H]4CCCO4)CC3)nc(N)c2cc1OC | ?
107 | COc1ccc(NC(=O)C2CCN(C(=O)c3cccs3)CC2)cc1 | -5%
108 | CCS(=O)(=O)CCSC(=N)N | 5%
109 | CCOc1cc(N2CCOCC2)c(OCC)cc1NC(=O)COC(=O)CCc1c[nH]c2ccccc12 | -9%
110 | CCOc1ccc(-n2cc(C(=O)N3CCCCCC3)c3cc(OC)c(OC)cc3c2=O)cc1 | -5%
111 | COc1ccc(CNC(=O)C2CC(=O)N(c3ccc(OCC(=O)N4C(C)CCCC4C)cc3)C2)cc1 (stereo not given) | -20%
112 | C/C(CCc1oc2ccc(Br)cc2c1-c1ccc(C)o1)=N/O | 20µM*
113 | CC(C)N(C)CCOC(=O)c1ccccc1Br | -1%
114 | O=C(c1cccc(F)c1)N1CCC2(CC1)CCN(c1ccccc1)CC2 | -5%
115 | COc1cccc(C2C(C#N)=C(N)OC3=C2C(=O)CC(c2ccco2)C3)c1OCc1ccc(F)cc1 (stereo not given) | -21%
116 | Cn1c(C(=O)O)c(CC(=O)Nc2ccccc2F)c2ccccc21 | -17%
117 | CCOC(=O)/C=C(/C)N1N=C(c2ccc(OC)cc2)CC1c1cccc([N+](=O)[O-])c1 (stereo not given) | -12%
118 | CCc1nccn1S(=O)(=O)c1ccc(C)c(C)c1 | -11%
119 | Cc1cccc(C)c1NC(=O)CN(C)C(=O)C(c1ccccc1)c1ccccc1 | 0%
120 | CSc1cc(/C=N/O)c(SC)s1 | 11µM*
121 | COc1ccc2c(C)nc(Nc3nc(C)cc(C)n3)nc2c1 | -11%
122 | O=C(c1ccco1)N1CCN(C(=O)c2ccccc2Oc2ccccc2)CC1 | -1%
123 | C/C(=N\NC(=O)c1c(Cl)c(C)nn1C)c1cccc(NC(=O)COc2ccc(Cl)cc2)c1 | -17%
124 | CS(=O)(=O)N(CCc1ccccc1)CC(=O)NCc1cccnc1 | -3%
125 | CCOC(=O)c1cc(OC(=O)c2cccs2)n(-c2ccccc2)n1 | -24%

Screening results: PubChem BioAssay, National Center for Advancing Translational Sciences (NCATS)
